CtBP-E1A blk: qHTS Assay for Inhibitors of the CtBP/E1A Interaction | CtBP / adenovirus E1A interaction (AlphaScreen) | AlphaScreen GST-E1A/His-CtBP binding, 1536-well; stronger effect = lower value; control for the full effect not named in the record | activity change, % (test concentration not listed) | 340,000 tested, 0.49% active | AID 651724, 2012; in the data active means activity change below about -65%; inconclusive means about -30% to -65%; inactive means above about -30%; further: on the % scale 0 is the no-effect control and ±100 the full control effect; compound concentration not given in the record
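Protein mix (5X: 125 nM each GST-E1A, His-CtBP) was incubated with pinned compound 2 h at 37 deg C in dark, in 50 mM Tris pH 8.0 buffer with 300 mM NaCl. Glutathione donor and nickel acceptor beads followed; AlphaScreen signal read after 1 h.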
TRPV1 PAM: HTS Assay for Compounds that Act as Potentiators of the Vanilloid Receptor 1; Transient receptor potential cation channel subfamily V member 1 (Homo sapiens), Q8NER1; TRPV1-expressing cells, Fluo-8 calcium influx, capsaicin EC20 potentiation; host cell line not named in the record; control for the full effect not named in the record; potentiation, % at 8.33 µM; 320,000 tested, 0.02% active; active means potentiation above 80%; inconclusive means 30% to 80%; inactive means below 30%; further: 0% is about no effect
Target sequence (Q8NER1 whole entry, looked up): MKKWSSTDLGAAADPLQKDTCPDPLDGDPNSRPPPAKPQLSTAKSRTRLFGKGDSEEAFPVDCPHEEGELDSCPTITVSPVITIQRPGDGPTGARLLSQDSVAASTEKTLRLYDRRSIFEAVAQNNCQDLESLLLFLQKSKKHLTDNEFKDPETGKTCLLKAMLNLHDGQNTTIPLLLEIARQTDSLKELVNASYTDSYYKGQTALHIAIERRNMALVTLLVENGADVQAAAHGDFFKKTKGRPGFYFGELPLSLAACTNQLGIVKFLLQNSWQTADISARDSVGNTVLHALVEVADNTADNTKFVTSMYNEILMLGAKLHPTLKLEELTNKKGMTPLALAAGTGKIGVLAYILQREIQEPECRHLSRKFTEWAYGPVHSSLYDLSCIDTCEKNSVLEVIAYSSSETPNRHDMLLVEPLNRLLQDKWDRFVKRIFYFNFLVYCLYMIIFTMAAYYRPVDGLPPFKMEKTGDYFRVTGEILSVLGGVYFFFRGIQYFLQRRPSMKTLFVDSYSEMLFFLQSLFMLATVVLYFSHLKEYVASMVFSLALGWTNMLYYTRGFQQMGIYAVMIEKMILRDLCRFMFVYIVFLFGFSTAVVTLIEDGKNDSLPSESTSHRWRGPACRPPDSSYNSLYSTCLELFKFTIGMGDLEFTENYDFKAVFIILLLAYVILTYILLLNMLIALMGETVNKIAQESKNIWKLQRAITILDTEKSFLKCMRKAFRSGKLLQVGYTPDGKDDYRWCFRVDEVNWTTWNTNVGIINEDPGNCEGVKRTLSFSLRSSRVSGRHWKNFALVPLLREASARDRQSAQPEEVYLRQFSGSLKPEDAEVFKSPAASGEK
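TRPV1-expressing cells were cultured overnight at 35.5C and loaded with Fluo-8 calcium dye for 40 to 90 min at room temperature. After a 10 s baseline, compound was added and calcium influx was read kinetically for 3 min (ex 480/em 520 nm).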
ClpP mod: qHTS Assay for Activators of ClpP; ATP-dependent Clp protease proteolytic subunit (Bacillus subtilis (strain 168)), P80244; purified B. subtilis ClpP, FRET peptide cleavage, 20 min; Potency, µM (titrated, usually from 57.5 µM), inactives show at the highest dose activity change, negative = active; 340,000 tested, 1.9% active; AID 651965, 2013; active = well fitted falling curve with a large enough effect; inconclusive = small, poorly fitted or top-dose-only effect; inactive = no such curve, though single readings can be large or run the other way; further: potency means the concentration at half of the fitted maximal effect; the source files actives as falling curves though it sought activators and does not explain the sign; nearly all actives have a fitted effect of over 65% in size; many hits overshoot -100%
Target sequence (P80244 whole entry, looked up): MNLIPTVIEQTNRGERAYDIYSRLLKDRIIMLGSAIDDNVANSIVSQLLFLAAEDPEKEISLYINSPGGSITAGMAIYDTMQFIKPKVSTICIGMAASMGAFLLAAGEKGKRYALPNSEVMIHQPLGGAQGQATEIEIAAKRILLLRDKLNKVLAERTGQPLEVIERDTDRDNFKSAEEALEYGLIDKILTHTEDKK
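FRET quenching reversal measured ClpP activation: 10 microg/mL B. subtilis ClpP at pH 8 with the FRET-FV decapeptide, read at 430 nm after 320 nm excitation. The 20-min minus 0-min signal was scaled between DMSO/no-enzyme wells and ADEP (5.8 microM final).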
Sfp inh: qHTS Assay for Inhibitors of Bacillus subtilis Sfp phosphopantetheinyl transferase (PPTase); Biochemical Sfp PPTase activity, qHTS; Potency, µM, inactives show max response, negative = inhibition, most hits filed as inhibitors; 310,000 tested, 3.5% active; AID 1490, 2009; active means well fitted inhibition curve with a large enough effect; inconclusive means small, poorly fitted or top-dose-only effect, or another doubt; inactive means no such curve, though single readings can be large or run the other way;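 further: the enzyme is Sfp with the accession as filed and its product quenches rhodamine fluorescence; potency means the concentration at half of the fitted maximal effect; 0% = enzyme reaction without inhibitor and -100% = no enzyme wells; top concentration of the series not given in the record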
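After 15 min at room temperature with compound, 15 nM Sfp received 5 uM rhodamine-CoA plus 12.5 uM BHQ-2-ybbR (50 mM Hepes pH 7.6, 10 mM MgCl2). Rate came from the fluorescence difference over 30 min, ex 525/em 598 nm.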
Menin-MLL FL inh: qHTS Assay for Inhibitors Targeting the Menin-MLL Interaction in MLL Related Leukemias: Competition With Fluorescein Labeled MLL-derived Peptide | 290,000 tested, under 10 active | Fluorescence polarization, fluorescein-MLL peptide displacement from menin | AID 1766, 2009 | FP activity change, % at 61.4 µM; inconclusive = falling polarisation curve, or a change in total fluorescence; inactive = total fluorescence flat and polarisation flat or rising; no compound was filed as active; the % refers to the polarisation; negative = inhibition;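 further: % of control where 0% means no effect; inhibitors lower the polarisation; unlabelled MLL peptide was the positive control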
gsp antag: qHTS for Antagonists of gsp, the Etiologic Mutation Responsible for Fibrous Dysplasia/McCune-Albright Syndrome: qHTS. gsp-mutant cells, cAMP HTRF, 30 min; control for the full effect not named in the record. Potency, µM (series often up to 76.9 µM), without a hit: top-dose activity change, negative = inhibition, actives largely listed as inhibitors. 340,000 tested, 0.4% active. AID 624288, 2012; active = falling curve of any shape with a large fitted effect; inconclusive = falling curve, mostly with a smaller effect; inactive = flat or rising curve; cell line not stated here;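 further: intracellular cAMP measured with PDE inhibitor Ro 20-1724 present during compound exposure; potency means the concentration at half of the fitted maximal effect; on the % scale 0 is the no-effect control and ±100 the full control effect; nearly all actives have a fitted effect of over 65% in size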
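Cells, 2000/well, grown 16–24 h in DMEM 10% FBS with 0.5 mg/ml G418, then compounds plus […] (300 uM addition stock), 30 min at 37C. cAMP read by HTRF (cAMP-d2 and anti-cAMP antibody-K in lysis buffer) after 30 min RT.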
gsp agonist: qHTS for Agonist of gsp, the Etiologic Mutation Responsible for Fibrous Dysplasia/McCune-Albright Syndrome: qHTS; gsp mutant cells, cAMP HTRF, 30 min; control for the full effect not named in the record; Potency, µM (series often up to 76.9 µM), for the others: at the top dose activation (cAMP increase), usual class: activators; 340,000 tested, 0.13% active; AID 624287, 2012; active = well fitted activation curve with a large enough effect; inconclusive = small, poorly fitted or top-dose-only effect, or another doubt; inactive = no such curve, though single readings can be large or run the other way; cell line not stated here;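 further: phosphodiesterase inhibitor Ro 20-1724 added with compounds to block cAMP breakdown; potency means the concentration at half of the fitted maximal effect; nearly all actives have a fitted effect of over 60% in size; about a fifth of the inactives were tested at one dose only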
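Cells in DMEM/10% FBS with G418 were pretreated with compounds in DMSO plus […] (300 uM stock) for 30 min at 37C. cAMP was measured by HTRF (cAMP-d2 plus anti-cAMP antibody-K) after 30 min at room temperature.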
Active calls of the source: *; ? = inconclusive; . = not tested or not shown; & = joins results of further samples; [ ] = dose if it differs, or a comment.

1: COc1ccc2c(c1)c(=O)c(C(=O)c1ccccc1)cn2Cc1ccccc1
2: C=CCNC(=S)NNc1nc(Nc2ccccc2)nc(N2CCCCC2)n1
3: COc1cc(CN(C(C)=O)c2ccccc2C(=O)O)ccc1[N+](=O)[O-]
4: CCN(CC(=O)Nc1ccccc1C(F)(F)F)C(=O)c1ccc(-n2nc(C)c(CCC(=O)OC)c2C)cc1
5: CCN(CC)C(=O)CN1C(=O)/C(=C/c2ccccc2)SC1=S
6: Cn1cc([C@@H]2C[C@H]3CN(Cc4cccc(Cl)c4)C(=O)[C@]34CCCN24)c(-c2ccccc2)n1
7: COc1ccc(N2C(=O)CC(Sc3nccc(C)n3)C2=O)cc1 (stereo not given)
8: CC1CN(C(=O)CN2C(=O)c3ccccc3C2=O)CC(C)O1 (stereo not given)

Screen / compound no. | 1 | 2 | 3 | 4 | 5 | 6 | 7 | 8
Menin-MLL FL inh | 0.3 | -4.0 | . | . | -6.2 | -6.2 | 0.0 | 2.2
Sfp inh | -15% | 25% | . | . | -15% | -13% | -15% | 11%
gsp antag | -4% | -8% | 5% | ? | -11% | ? | 3% | 7%
CtBP-E1A blk | -1 | . | 5 | 7 | 0 | -14 | 5 | 1
gsp agonist | -1% | -17%[15.4 µM] | 2% | ? | ? | 2%[15.4 µM] | -7% | -4%
ClpP mod | 0.1% | . | 0.7% | -0.9% | -0.6% | . | 0.6% | -1.5%
TRPV1 PAM | -9 | -3 | . | . | 4 | 3 | ? | -6

9: COc1ccc(-c2nnn(CC(=O)NCCc3ccc(OC)c(OC)c3)n2)cc1
10: CN(C)NC1=CC(=[N+]2CCCC2)CC(C)(C)C1
11: COC(=O)c1cc(NS(=O)(=O)c2ccc(N3CCOCC3)c(NC(C)=O)c2)cc(C(=O)OC)c1
12: COc1cc2c(cc1OC)/C(=C/C(=O)c1ccccc1)NCC2
13: O=C(O)c1cccc(N2CCCC2=O)c1
14: COc1cc(S(=O)(=O)NCc2ccncc2)c(OC)cc1C
15: CCc1ccc(C(=O)CN2C(=O)NC3(CCc4ccccc43)C2=O)cc1 (stereo not given)
16: C=CCn1c(SCC(=O)Nc2nnc(C)s2)nnc1C1CC1

Screen / compound no. | 9 | 10 | 11 | 12 | 13 | 14 | 15 | 16
Menin-MLL FL inh | 0.9 | -2.1 | 2.6 | 4.1 | 1.5 | 1.9 | . | .
Sfp inh | 3% | 8% | 19% | -4% | -6% | 10% | . | 8%
gsp antag | 10% | -9% | -21% | 14% | 4% | -1% | -1% | 7%
CtBP-E1A blk | 8 | 0 | 17 | -27 | 5 | -2 | -9 | -8
gsp agonist | -3% | 2%[15.4 µM] | 3%[15.4 µM] | 7% | 0% | 12%[15.4 µM] | -58%[inhibitor] | -9%[15.4 µM]
ClpP mod | . | . | -1.8% | -15% | -0.2% | . | 0.0% | -2.9%
TRPV1 PAM | 0 | -4 | 0 | -27 | -22 | 6 | 15 | 14

In the list so far, these contain nitrogen in an aromatic ring.
1: COc1ccc2c(c1)c(=O)c(C(=O)c1ccccc1)cn2Cc1ccccc1
2: C=CCNC(=S)NNc1nc(Nc2ccccc2)nc(N2CCCCC2)n1
4: CCN(CC(=O)Nc1ccccc1C(F)(F)F)C(=O)c1ccc(-n2nc(C)c(CCC(=O)OC)c2C)cc1
6: Cn1cc([C@@H]2C[C@H]3CN(Cc4cccc(Cl)c4)C(=O)[C@]34CCCN24)c(-c2ccccc2)n1
7: COc1ccc(N2C(=O)CC(Sc3nccc(C)n3)C2=O)cc1 (stereo not given)
9: COc1ccc(-c2nnn(CC(=O)NCCc3ccc(OC)c(OC)c3)n2)cc1
14: COc1cc(S(=O)(=O)NCc2ccncc2)c(OC)cc1C
16: C=CCn1c(SCC(=O)Nc2nnc(C)s2)nnc1C1CC1

Screen / compound no. | 1 | 2 | 4 | 6 | 7 | 9 | 14 | 16
Menin-MLL FL inh | 0.3 | -4.0 | . | -6.2 | 0.0 | 0.9 | 1.9 | .
Sfp inh | -15% | 25% | . | -13% | -15% | 3% | 10% | 8%
gsp antag | -4% | -8% | ? | ? | 3% | 10% | -1% | 7%
CtBP-E1A blk | -1 | . | 7 | -14 | 5 | 8 | -2 | -8
gsp agonist | -1% | -17%[15.4 µM] | ? | 2%[15.4 µM] | -7% | -3% | 12%[15.4 µM] | -9%[15.4 µM]
ClpP mod | 0.1% | . | -0.9% | . | 0.6% | . | . | -2.9%
TRPV1 PAM | -9 | -3 | . | 3 | ? | 0 | 6 | 14

(list continues)
17: Cc1cc(=O)[nH]c(SCC(=O)Nc2ccc(S(=O)(=O)N3CCOCC3)cc2)n1
18: CC(=O)Nc1ccc(S(=O)(=O)N(c2cccnc2)S(=O)(=O)c2ccc(NC(C)=O)cc2)cc1
19: CCN1C(=O)c2cccc3c(S(=O)(=O)NCc4ccccn4)ccc1c23
20: COc1ccc(Cl)cc1C=CC=Nc1ccccc1O
21: Cc1ccc(NC(=O)COC(=O)c2csc3c2CCC(C)C3)cc1S(=O)(=O)N1CCCCC1 (stereo not given)
22: CC(C)C(=O)N1CCN(CCN=CC2=C(O)CC(c3ccco3)CC2=O)CC1 (stereo not given)
23: CN(Cc1nc(-c2cnccn2)no1)Cc1cccc2ccccc12
24: COc1ccccc1C(=O)Nc1ccc(S(=O)(=O)N(C)c2ccccc2)cc1

Screen / compound no. | 17 | 18 | 19 | 20 | 21 | 22 | 23 | 24
Menin-MLL FL inh | 1.3 | 2.3 | 3.2 | . | 7.2 | -0.1 | -3.1 | .
Sfp inh | 8% | 12% | 2% | . | -5% | -6% | 4% | .
gsp antag | 8% | -8% | -2% | 3% | -8% | -9%&0% | 7% | 2%
CtBP-E1A blk | 2 | 13 | 8 | -25 | 4 | 0&-7 | -9 | -2
gsp agonist | 6% | -24% | 11% | -10% | 7% | -8%&-25% | 0% | -2%[15.4 µM]
ClpP mod | -0.8% | 0.8% | ? | -20% | -0.6% | -0.7%&-3.2% | -2.0% | 0.2%
TRPV1 PAM | 9 | 7 | 3 | . | 15 | -3 | 1 | .

25: COc1cc(CCC(=O)OCC(=O)c2ccc[nH]2)cc(OC)c1OC
26: CC(C1CC2CCC1C2)n1c(-c2ccco2)n[nH]c1=S (stereo not given)
27: Cc1ccc2nsnc2c1NC(=S)NC(=O)c1ccco1
28: COC(=O)C(Cc1ccccc1)P(=O)(c1ccccc1)c1ccccc1 (stereo not given)
29: C/C(=N/NC(=O)CNC(=O)c1cccnc1)c1ccc(Cl)cc1
30: COC(=O)Nc1ccc(S(=O)(=O)Nc2cc(OC)nc(OC)n2)cc1
31: O=C(CSc1ccc(Br)cc1)NCC(c1ccco1)N1CCCCC1 (stereo not given)
32: O=c1[nH]cnc2c1ncn2C1OC(CO)C(O)C1O (stereo not given)

Screen / compound no. | 25 | 26 | 27 | 28 | 29 | 30 | 31 | 32
Menin-MLL FL inh | . | 0.6 | 3.9 | 1.4 | 4.4 | -1.4 | . | 0.5&-18&0.4
Sfp inh | . | ? | 50µM* | -6% | 16% | -10% | . | ?
gsp antag | 6% | -4% | 6% | 5% | 9% | 5% | 8% | -4%
CtBP-E1A blk | 9 | -21 | -5 | 14 | 5 | 8 | -14 | -18
gsp agonist | 0% | 15%[15.4 µM] | -1%[15.4 µM] | -24% | -14% | -13%[15.4 µM] | -16% | .
ClpP mod | -5.2% | . | 0.5% | -1.0% | 0.0% | 1.5% | -3.8% | 0.6%
TRPV1 PAM | 0 | 12 | -9 | -4 | -1 | 4 | 16 | .

33: CC(C)[C@H](NC(=O)c1ccc(Cl)c([N+](=O)[O-])c1)C(=O)NCc1ccc(F)cc1
34: O=C(COc1nc2ccccc2nc1N1CCOCC1)NC1CCCCC1
35: O=C(NCc1ccc(F)cc1)c1cc(C(=O)C2CC2)c[nH]1
36: N#Cc1ccc(C(=O)Nc2cc(C3CC3)nn2-c2ccccc2)cc1

Screen / compound no. | 33 | 34 | 35 | 36
Menin-MLL FL inh | 4.4 | 1.0 | . | .
Sfp inh | 12% | 23% | 14% | .
gsp antag | -8% | 13% | 9% | -3%
CtBP-E1A blk | 18 | -10 | 4 | 4
gsp agonist | -13% | 47% | 32% | -26%
ClpP mod | -2.8% | -1.2% | -0.2% | -0.1%
TRPV1 PAM | -10 | 10 | -1 | -39

Bioassay records as filed in PubChem BioAssay.
